Mtb betalactam: beta-lactam sensitization of Mtb H37Rv. M. tuberculosis H37Rv growth with meropenem, percent inhibition; hits of this screen are not shown here. inhibition, % at 25 µM. 0.27% of 330,000 active;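 active = about 74% or more and at least 40 points above the plate without the antibiotic, then above 30% in a dose series; inconclusive = first-round hits that could not be retested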;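 also: growth measured after seven days incubation then overnight dye step; 0% = bacteria only wells and 100% = bacteria with antibiotic; twin plates without the antibiotic show which effects depend on it; some results filed as inactive read as strong as hits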
YopH inh: blocks Yersinia enterocolitica YopH tyrosine phosphatase. inhibition, %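 (about 10 µM by stock and volumes)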. 0.16% of 140,000 active. fluorescence Ex485/Em525. AID 898;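 active = inhibition of 50% or more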;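 also: controls were vehicle for no effect and minimum signal wells for full effect; inactives centre near -20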
Arbovirus inh: blocks arbovirus infection | inhibition, % at 10 µM | arbovirus infection cell-based antiviral screen | AID 1251 | 0.37% of 200,000 active;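 active = inhibition from about 30%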;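 also: bluetongue infection of BSR cells; cell survival read as ATP light after 72 h; 0% = infected wells without compound and 100% = uninfected wells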
Mtb growth: M. tuberculosis H37Rv growth inhibitors, H37Rv strain (AID 1626); M. tuberculosis H37Rv growth inhibition; higher % means a stronger effect; inhibition, % at 10 µM, or IC50 in µM where a hit was titrated; 0.95% of 220,000 active;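 active = confirmed in a dose series; inconclusive = inhibition above 80% but not taken into the dose series; inactive = below 80% or under 30% at every dose of the series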;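 also: bacteria incubated seven days before Alamar blue readout; 0% = bacteria only wells and 100% = bacteria with antibiotic wells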
RecA intein inh: blocks M. tuberculosis RecA intein splicing. P9WHJ3. AID 2221. cell-free RecA intein splicing, fluorescence. inhibition, %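 (about 9 µM by stock and volumes)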. 0.75% of 290,000 active; in the data active = inhibition above about 30%; inconclusive = no clear call, values can overlap the other calls;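 also: 0% = vehicle wells and 100% = reference inhibitor control wells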
Target sequence (P9WHJ3 whole entry, looked up): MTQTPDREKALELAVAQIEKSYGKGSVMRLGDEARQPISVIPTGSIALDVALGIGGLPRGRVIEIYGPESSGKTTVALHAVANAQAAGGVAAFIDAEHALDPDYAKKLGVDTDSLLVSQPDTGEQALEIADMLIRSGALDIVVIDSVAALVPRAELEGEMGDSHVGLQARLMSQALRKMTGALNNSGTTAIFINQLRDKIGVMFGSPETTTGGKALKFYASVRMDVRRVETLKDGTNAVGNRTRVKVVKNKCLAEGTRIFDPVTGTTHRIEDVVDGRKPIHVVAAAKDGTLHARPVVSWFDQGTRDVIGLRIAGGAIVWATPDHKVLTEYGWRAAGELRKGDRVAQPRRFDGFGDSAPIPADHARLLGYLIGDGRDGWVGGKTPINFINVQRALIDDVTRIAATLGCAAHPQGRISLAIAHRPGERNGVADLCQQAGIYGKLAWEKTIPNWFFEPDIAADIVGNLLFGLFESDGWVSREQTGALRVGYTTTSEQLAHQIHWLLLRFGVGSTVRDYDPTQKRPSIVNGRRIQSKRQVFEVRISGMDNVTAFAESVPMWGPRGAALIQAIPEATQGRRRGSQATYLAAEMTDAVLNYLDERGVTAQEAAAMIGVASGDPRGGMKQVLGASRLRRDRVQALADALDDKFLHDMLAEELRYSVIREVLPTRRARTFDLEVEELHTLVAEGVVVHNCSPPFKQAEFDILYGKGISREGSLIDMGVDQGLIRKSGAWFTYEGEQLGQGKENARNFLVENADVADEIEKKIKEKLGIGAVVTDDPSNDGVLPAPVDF
Arbovirus inh repeat: recorded beside Arbovirus inh, whose call it bears; inhibition, %; measured here: 10K subset replicate screen; many hits read low in the repeat;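 first of two repeat runs on a subset; 0% = infected and 100% = uninfected wells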
* marks the source's active call; other numbers are inactive results; ? = inconclusive; / = not tested or not shown.

SMILES | Mtb betalactam | YopH inh | Arbovirus inh | Mtb growth | RecA intein inh | others
CCCn1c(SCC(=O)Nc2cccc(C(=O)OCC)c2)nnc1-c1ccoc1C | -7.5 | -11.3 | 1.1 | 21.8% | 0.4
O=C1OC2(O)C3C4C=CC(C4)C3C(=O)N2c2ccccc21 (centres undefined) | -2.5 | / | / | -5.2% | -0.7
O=C(COc1ccc(C(=O)O)cc1)Nc1cccc(C(F)(F)F)c1 | -5.7 | / | 13.0 | -0.4% | 1.8
CCOc1ccc(-c2nnc(SCC(=O)NC(C)(C)C)nc2-c2ccc(OCC)c(OC)c2)cc1OC | 2.7 | / | / | / | 2.0
CCn1c(CNC(=O)Cc2ccc(OC)cc2)nnc1SCC(=O)Nc1nccs1 | 5.7 | -38.3 | -5.0 | -6.6% | 2.5
Cc1cc(NC(=O)CCC(=O)N(Cc2ccco2)C(C(=O)NC2CCCC2)c2ccc(F)cc2)no1 (centres undefined) | 5.2 | / | / | / | 0.9
COc1ccc(NC(=O)CN(C)C(=O)CSc2ccc3c(c2)OCCO3)cc1 | -8.5 | / | / | / | -4.8
Cc1cc(C)n(CCNc2nc3nonc3nc2N2CCCCC2)n1 | -0.9 | / | 0.6 | -5.8% | -6.3
CC1CCc2ccc(F)cc2N1S(=O)(=O)c1cccs1 (centres undefined) | 1.9 | -16.6 | 1.8 | -11.4% | 7.4
COc1ccc(C(=O)CSc2ccccc2C(=O)O)cc1 | 60.8 | / | -8.0 | -4.8% | -3.2
c1ccc(-c2nc3cccnc3nc2-c2ccccc2)cc1 | -5.1 | / | / | / | 0.9
COc1cc2c(cc1NC(=O)CN1CCN(S(=O)(=O)c3ccccc3F)CC1)oc1ccccc12 | 3.0 | -13.9 | -2.8 | -6.0% | 0.4
Cn1nnnc1SCc1ccccc1F | -1.7 | 3.3 | 1.1 | -5.1% | -2.0
CN(CC(=O)Nc1ccccc1F)Cc1cccs1 | -2.0 | / | / | / | -1.7
Cc1cccc(N2CCN(C(=O)c3ccccc3NC(=O)C3CCCCC3C(=O)O)CC2)c1 (centres undefined) | -7.3 | -24.7 | 0.6 | 0.9% | -12.5
N#CCCn1cc(C=C2C(=O)NC(=O)NC2=O)c(-c2ccccc2)n1 | 0.9 | / | -2.5 | 1.7% | -0.9
CC(=O)c1ccc(NC(=O)CNC2CCCCC2)cc1 | -0.7 | / | / | / | -1.9
Cc1cc(C)c(S(=O)(=O)N(CC(=O)N2CCCC2)C2CCCCC2)c(C)c1 | -11.3 | 2.0 | -10.1 | -8.7% | 7.9
O=C(O)C[C@H]1c2cc(F)ccc2S(=O)(=O)N1C1CCCCC1 | -7.3 | / | / | -2.4% | -4.7
CCOC(=O)c1ccc(-n2ncc(C(=O)OCC)c2N)cc1 | 2.7 | -15.0 | -0.5 | 9.6% | -3.8
CCN(CC)S(=O)(=O)c1ccc(Cl)c(C(=O)OC)c1 | -5.4 | -24.8 | 1.2 | -9.6% | 0.0
CN(CC(=O)Nc1cc(S(=O)(=O)N2CCCC2)ccc1Cl)Cc1cccs1 | -4.5 | / | / | 0.6% | 10.0
O=C(c1csc(Nc2cccc3ccccc23)n1)N1CCCC1 | -0.8 | / | / | -8.3% | 3.1
COc1ccc(/C=N/n2cnn(Cc3ccccc3Cl)c2=S)cc1OC | -3.5 | / | 8.0 | 9.4% | 0.5
N#C/C(C(=O)N1CCOCC1)=C1/SC(Cc2ccc(F)cc2)C(=O)N1c1ccccc1 (centres undefined) | 3.8 | -29.1 | 3.6 | 1.6% | 1.6

(listing goes on)
SMILES | Mtb betalactam | YopH inh | Arbovirus inh | Mtb growth | RecA intein inh | others
O=C(Nc1ccccc1)C(Cc1ccccc1)NC(=O)C12CC3CC(CC(C3)C1)C2 (centres undefined) | -2.3 | -36.3 | 11.8 | -0.1% | -4.8
COc1ccc(Cl)cc1NC(=S)N(Cc1ccc(C(=O)O)cc1)Cc1ccc(OC)c(OC)c1 | 1.1 | / | 11.3 | -7.8% | 4.2
CC(C)C(=O)NNC(=O)CN1CCN(c2nc(-c3ccccc3)cs2)CC1 | -2.3 | / | 5.2 | -1.7% | -1.5
COc1ccc(/C=C/C(=O)OCC(=O)NCCC2=CCCCC2)cc1S(=O)(=O)N1CCOCC1 | -12.8 | / | 1.8 | 5.7% | -0.1
COc1ccccc1N1CCN(C(=O)COc2cc(C)cc3oc(=O)cc(C)c23)CC1 | 5.6 | / | / | / | -0.7
O=c1ccc2c([nH]1)CCCCCCCCCC2 | 3.6 | / | / | / | -3.8
O=C(COC(=O)COc1ccccc1)Nc1cccc([N+](=O)[O-])c1 | -0.8 | / | 15.2 | -0.7% | 1.0
COc1ccc(Cl)c(NC(=O)C/C(C)=N/NC(=O)CCc2ccccc2)c1 | 1.4 | / | / | / | 7.7
CCO[C@H]1OC(C(=O)Nc2ccccc2)=C[C@@H](c2csc3ccccc23)[C@@H]1CCCO | 8.6 | / | -18.2 | -4.0% | 12.3
COC(=O)Cn1c(C(=O)N2CCCC2)cc2c1C[C@H]1CN(C(=O)c3ccccc3)[C@@](Cc3ccc(F)cc3)(C(=O)OC)[C@@H]21 | -3.1 | -0.8 | 18.1 | -0.1% | /
c1ccc(CCCN2CCN(c3ccccc3)CC2)cc1 | -2.3 | / | / | / | 1.1
O=C(CN1CCN(Cc2ccccc2)CC1)c1ccccc1 | -5.8 | -45.5 | 11.5 | 4.4% | -0.5
O=[N+]([O-])c1cc(-c2ncccn2)c([N+](=O)[O-])s1 | 99.5 | -35.5 | -34.4 | ? | 6.5
COc1ccc(OC)c(-c2nc(CN(C)C(C)c3ccncn3)c(C)o2)c1 (centres undefined) | 1.4 | / | 6.0 | 6.1% | -5.0
COC(=O)c1scc(C)c1N1C(=O)c2ccccc2C1=O | -0.2 | / | / | -11.3% | -2.1
CCCCCn1cnc2c(=S)nc(N)[nH]c21 | / | / | / | 8.4% | -2.7
Cc1nc2ccc(S(=O)(=O)c3ccc4nc(C)[nH]c4c3)cc2[nH]1 | -3.8 | -28.6 | 5.8 | -23.2% | -0.1
CCOc1ccc2nc(NC(=O)C(NS(=O)(=O)c3cccs3)C(C)C)sc2c1 (centres undefined) | -14.4 | -0.5 | -10.0 | 10.3% | -2.9
CCc1ccc2nc(Nc3ncc(C(C)=O)c(C)n3)nc(C)c2c1 | 6.8 | / | / | 0.2% | 1.6
c1ccc2c(c1)ncn2-c1ccc(-c2ccnc(-c3ccncc3)n2)cc1 | 3.1 | -28.0 | 11.0 | / | -0.1
COc1cccc(-c2nc(OC(C)C)c3ccccc3n2)c1 | 64.1 | 24.4 | -11.1 | 9.6% | 10.1
O=CC1=C(c2ccccc2)Oc2ccccc2O1 | 11.3 | / | / | / | -0.9
O=C(Nc1ccc(Cl)cc1C(=O)Nc1ccc(Br)cn1)c1ccco1 | -3.0 | -0.5 | -4.5 | 14.5% | -3.2
Cc1ccccc1NC(=O)C(C#N)Cc1cccnc1 (centres undefined) | -6.7 | -22.5 | 5.9 | -1.9% | -5.9
CCN1/C(=C\C=C2\C(=O)N(c3ccccc3)C(=S)N2C)Sc2ccccc21 | / | / | -12.3 | 27.1% | 2.5

13 neighbouring records from above, quoted:
SMILES | Mtb betalactam | YopH inh | Arbovirus inh | Mtb growth | RecA intein inh | others
CN(CC(=O)Nc1cc(S(=O)(=O)N2CCCC2)ccc1Cl)Cc1cccs1 | -4.5 | / | / | 0.6% | 10.0
O=C(c1csc(Nc2cccc3ccccc23)n1)N1CCCC1 | -0.8 | / | / | -8.3% | 3.1
COc1ccc(/C=N/n2cnn(Cc3ccccc3Cl)c2=S)cc1OC | -3.5 | / | 8.0 | 9.4% | 0.5
N#C/C(C(=O)N1CCOCC1)=C1/SC(Cc2ccc(F)cc2)C(=O)N1c1ccccc1 (centres undefined) | 3.8 | -29.1 | 3.6 | 1.6% | 1.6
O=C(Nc1ccccc1)C(Cc1ccccc1)NC(=O)C12CC3CC(CC(C3)C1)C2 (centres undefined) | -2.3 | -36.3 | 11.8 | -0.1% | -4.8
COc1ccc(Cl)cc1NC(=S)N(Cc1ccc(C(=O)O)cc1)Cc1ccc(OC)c(OC)c1 | 1.1 | / | 11.3 | -7.8% | 4.2
CC(C)C(=O)NNC(=O)CN1CCN(c2nc(-c3ccccc3)cs2)CC1 | -2.3 | / | 5.2 | -1.7% | -1.5
COc1ccc(/C=C/C(=O)OCC(=O)NCCC2=CCCCC2)cc1S(=O)(=O)N1CCOCC1 | -12.8 | / | 1.8 | 5.7% | -0.1
COc1ccccc1N1CCN(C(=O)COc2cc(C)cc3oc(=O)cc(C)c23)CC1 | 5.6 | / | / | / | -0.7
O=c1ccc2c([nH]1)CCCCCCCCCC2 | 3.6 | / | / | / | -3.8
O=C(COC(=O)COc1ccccc1)Nc1cccc([N+](=O)[O-])c1 | -0.8 | / | 15.2 | -0.7% | 1.0
COc1ccc(Cl)c(NC(=O)C/C(C)=N/NC(=O)CCc2ccccc2)c1 | 1.4 | / | / | / | 7.7
CCO[C@H]1OC(C(=O)Nc2ccccc2)=C[C@@H](c2csc3ccccc23)[C@@H]1CCCO | 8.6 | / | -18.2 | -4.0% | 12.3

More structures:
SMILES | Mtb betalactam | YopH inh | Arbovirus inh | Mtb growth | RecA intein inh | others
Cc1cc(C)n2cc(CSc3nnc(N)s3)nc2n1 | -11.3 | -36.6 | -2.5 | -3.6% | 1.5
COc1cccc(N(CC(=O)NC2CCCCC2)C(=O)CCCC(=O)Nc2ccccn2)c1 | -7.0 | / | / | / | 0.9
Cc1nn(C)c(Oc2ccccc2)c1CCNC(=O)C(C)(C)C | -9.7 | / | 8.3 | -1.7% | 0.3
COc1ccccc1C(=O)Nc1nc2ccccc2[nH]1 | 2.7 | / | / | / | 0.3
CCOC(=O)CN/C=C(\C#N)c1ccccc1 | 2.8 | -24.2 | 7.2 | -2.4% | -0.2
Cc1ccc(C)c(NC(=O)CCCCCCCCCCC2COCCO2)c1 (centres undefined) | 0.2 | -1.4 | 1.6 | 0.6% | 0.5
Cc1nc(NC(=O)CCc2ccccc2)ccc1Br | -8.1 | 20.5 | -11.5 | 0.6% | 0.9
O=C(NCc1cccs1)c1cc(S(=O)(=O)N2CCOCC2)c(Cl)cc1Cl | -1.1 | / | / | / | 1.3
COc1cc(C(=O)O/N=C(\N)c2cccc([N+](=O)[O-])c2)cc(OC)c1OC | -2.0 | / | / | -4.0% | -0.1
O=C(NCc1ccccn1)c1ccc(Cl)c(S(=O)(=O)N2CCCCC2)c1 | -13.3 | / | 0.4 | -1.9% | 0.7
CCN1CCN(CCOc2ccc(Br)cc2C)CC1 | 2.9 | / | -28.1 | 1.0% | -1.6
CC(=O)NC(CC(=O)N(Cc1ccccc1)c1ccc(C)cc1)c1ccccc1 (centres undefined) | 8.2 | / | / | / | 4.1
Cc1sc(-c2ccccn2)nc1OC(=O)c1ccc(F)cc1F | 4.7 | / | 9.0 | 3.4% | 5.6
CC(=O)Nc1ccc(S(=O)(=O)Nc2ccccc2C(=O)N2CCCC2)cc1 | 4.5 | / | / | / | -81.5
CN(Cc1cnn(C)c1)C(=O)C1CCC(=O)N(Cc2cccc(F)c2)C1 (centres undefined) | 0.5 | / | / | / | -0.6
CC(=O)Nc1ccc(S(=O)(=O)NC2C3(C)CCC(C3)C2(C)C)cc1 (centres undefined) | 40.3 | / | / | / | 1.2
CCC(=O)c1ccc(OCC(=O)OCC(=O)NCC2CCCO2)cc1 (centres undefined) | -4.4 | / | / | / | -3.5
Cn1c(=O)c2c(SCc3cccnc3)nc(CC(C)(C)C)nc2n(C)c1=O | 7.2 | / | -19.4 | 9.1% | 13.7 | Arbovirus inh repeat=-14.8
O=C(CSc1ccc2ccccc2c1)NC1CCCc2ccccc21 (centres undefined) | -1.9 | -42.8 | -0.7 | 1.8% | -0.7
NC(=O)C1(N2CCCCC2)CCN(C(=S)NCCc2ccccc2)CC1 | 2.0 | / | 10.8 | -0.2% | -4.1
O=C(NCc1ccco1)c1ccc(Br)c(S(=O)(=O)N2CCCCC2)c1 | 2.0 | -39.2 | 2.1 | -2.5% | 4.5 | Arbovirus inh repeat=-1.6
CCC(=O)Nc1ccc(C(=O)CSc2nnc(-c3ccccc3F)n2C2CC2)cc1 | 2.3 | -22.7 | 7.2 | 21.1% | 1.8
CC(=O)CCc1c(C)c2cccc(C)c2[nH]c1=O | 5.3 | -24.4 | 10.6 | 1.0% | 0.5 | Arbovirus inh repeat=11.9
COc1ccc(CCNC(=O)c2ccc(NC3=NC4CS(=O)(=O)CC4S3)cc2)cc1OC (centres undefined) | 3.5 | / | / | / | -0.8
COCc1nnc(NC(=O)c2cc3ccccc3o2)s1 | 6.2 | / | / | / | -1.7
Cc1nccn1CCCNC(=O)CC1C(=O)NCCN1Cc1ccc(Cl)c(F)c1 (centres undefined) | -6.9 | / | 2.0 | 3.1% | -2.1
Cc1cc(C)cc(NC(=O)CN(C)S(=O)(=O)c2cnc[nH]2)c1 | -3.9 | -19.4 | 0.7 | -4.1% | 2.2

This is a subset; the hit share may differ from the screen's.
